Assay outcomes deposited in PubChem by ICCB-Longwood Screening Facility, Harvard Medical School.
Mtb MenB inh: inhibitors of Mycobacterium tuberculosis MenB enzyme. inhibition, %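 (about 12 µg/mL by stock and volumes)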. P9WNP5. actives 0.43% (n = 100,000). MenB enzyme assay, absorbance read-out; some hits fall short of the stated cut;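 active = mean of two replicates above 30%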;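 also: 0% = no compound and 100% = wells with inactive enzyme; the first replicate is given; strong numbers were not always called active; inactives centre near -10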
Target sequence (P9WNP5 whole entry, looked up): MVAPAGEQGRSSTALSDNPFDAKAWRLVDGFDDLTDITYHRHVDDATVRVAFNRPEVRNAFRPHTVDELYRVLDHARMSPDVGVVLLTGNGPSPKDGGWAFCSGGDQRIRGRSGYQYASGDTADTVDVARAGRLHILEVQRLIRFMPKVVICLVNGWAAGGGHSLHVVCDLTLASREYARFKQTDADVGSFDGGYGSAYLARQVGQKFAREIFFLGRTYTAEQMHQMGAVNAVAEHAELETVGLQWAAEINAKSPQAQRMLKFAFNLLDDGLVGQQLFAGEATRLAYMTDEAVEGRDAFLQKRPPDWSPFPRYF
Polio RdRp inh: poliovirus RNA polymerase inhibition. P03300. % elongation, % (compound at 16.7 µg/mL). actives 0.66% (n = 150,000). poliovirus polymerase elongation, fluorescence polarization; active compounds read low. AID 588519; in the data active = % elongation below about 90%; also: some results filed as inactive read as strong as hits
MbtI inh: blocks the Mycobacterium tuberculosis siderophore enzyme MbtI; purified MbtI enzyme, fluorescence intensity read-out; inhibition, %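 (about 17 µg/mL by stock and volumes)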; actives 0.89% (n = 100,000); AID 493033; P9WFX0;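 active = above 50% in both replicates, above 80% if mildly self-fluorescent; inactive = the rest, strongly fluorescent compounds included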;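 also: 0% = mean of negative and 100% = mean of positive controls; one replicate is shown; some compounds called inactive have numbers as strong as hits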
Target sequence (P9WFX0 whole entry, looked up): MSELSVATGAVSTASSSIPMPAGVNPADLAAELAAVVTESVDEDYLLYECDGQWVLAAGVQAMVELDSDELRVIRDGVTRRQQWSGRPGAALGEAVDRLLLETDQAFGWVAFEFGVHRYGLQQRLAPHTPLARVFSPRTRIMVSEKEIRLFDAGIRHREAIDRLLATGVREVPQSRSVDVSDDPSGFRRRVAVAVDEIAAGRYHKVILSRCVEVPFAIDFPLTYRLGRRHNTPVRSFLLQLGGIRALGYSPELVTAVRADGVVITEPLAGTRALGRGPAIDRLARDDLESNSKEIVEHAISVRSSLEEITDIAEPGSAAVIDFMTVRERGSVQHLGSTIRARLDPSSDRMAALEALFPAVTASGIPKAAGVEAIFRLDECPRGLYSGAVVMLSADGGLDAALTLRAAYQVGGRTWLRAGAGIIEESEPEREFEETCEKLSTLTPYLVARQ
Polio RdRp inh intensity: also measured in Polio RdRp inh; calls as there; % elongation; measured here: total intensity read-out; formula for this scale not given here;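 total fluorescence in place of polarization; lower means less elongation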
Starred values were filed as active, the others as inactive; i = inactive; . = not tested or not shown; & = joins results of further samples; ! = not active in a repeat.

Values run as follows: Mtb MenB inh, Polio RdRp inh, Polio RdRp inh intensity, MbtI inh
- c1ccc(NCc2ccncc2)cc1
    0, 100, 99, -4
- Cc1ccc(CSc2nc(C)c(Oc3cccc(C(F)(F)F)c3)c(=O)n2C)cc1
    -3, 105, 115, -5
- CCN(CC(=O)Nc1ccc(OC)cc1)Cc1nc2sc(C(=O)OC)c(C)c2c(=O)[nH]1
    -4, 143, 169, -18
- COc1ccc(SCCc2ccncc2)cc1
    -71, 100, 101, 0
- CC(C)(C)OC(=O)N1CCN(Cc2ccccc2)CC1
    2, 104, 92, -6
- O=C1OCCN/C1=C/C(=O)c1ccc(Cl)cc1
    -144, 102, 102, -7
- O=C(NCN1CCOCC1)c1cccnc1
    -19, 104, 98, 0
- CCCCn1c(=O)n(CC(=O)c2[nH]c(C)c(C(=O)OCC)c2C)c(=O)c2c1ncn2Cc1ccco1
    -30, 114, 112, 22
- CC(=O)Nc1ccc(Br)c(OC(F)F)c1
    -18, 102, 100, 2
- CC(=O)N(c1ccccc1)c1nc(CSc2nnc(-c3ccc(C)cc3)o2)cs1
    13, 102, 98, 8
- Cc1ccc(Nc2nc(N)nc(CSc3ncccn3)n2)cc1
    -11, 102, 99, 4
- CN(C(=O)c1nn(C)c2c1CSc1ccccc1-2)c1ccccc1
    -5, 101, 100, -17
- Cn1c(C(=O)Nc2ccc(C(=O)N3CCCC3)cc2)cc(=O)n(C)c1=O
    -8, 102, 102, -1
- COCCn1c(C)cc(/C=N/n2c(-c3ccccc3C)n[nH]c2=S)c1C
    -37, 82*, 85*, 96*
- Cc1ccc(NC(=O)CC2NCCN(Cc3ccccc3)C2=O)cc1 (stereo unspecified)
    4, 98, 97, -2
- COc1ccc(C(C)=CC(=O)C(C)(C)C)cc1
    -14, 102, 106, -5
- CCCc1c(NC(=O)Nc2ccc(F)cc2)cnn1-c1ccccc1
    -8, 103, 104, -10
- CC(=O)N=C(N=Nc1c(O)[nH]c2ccccc12)NC(C)=O
    -28, 104, 101, 1
- Cc1ccc2sc(C(=O)O)cc2c1
    -11, 111, 112, 3
- CCOc1cc(-c2nn3c(C(C)(C)C)nnc3s2)cc(OCC)c1OCC
    -4, 103, 101, -30
- Cn1nc(-c2ccc(C(=O)N3CCN(CCO)CC3)cc2)c2ccccc2c1=O
    -1, 98, 100, 10
- O=C(NC1C2CC3CC(C2)CC1C3)c1cc2ccccc2o1 (stereo unspecified)
    12, 99, 103, -7
- Cc1ccc(C(=O)N/N=c2\oc3ccccc3cc2C(N)=O)cc1
    -17, 103, 99, 1
- CC(C)NC(=O)/C=C/c1ccco1
    3, 101, 104, 26
- N#CC(c1ccccc1)c1cn2cc(Br)ccc2n1 (stereo unspecified)
    ., 104, 107, -7
- CCOC(=O)c1cc(CC)sc1/N=C/C1C(=O)NC(=S)NC1=O
    -6, 100, 108, 14
- COc1ccc(-c2csc3nc[nH]c(=O)c23)cc1OC
    -12, 100, 104, 10
- NC(=O)CN(C1CCCCC1)S(=O)(=O)c1ccc(Br)cc1
    41*, 99, 102, i
- O=C(CN1C(=O)CCC1=O)NCc1ccc2c(c1)OCO2
    -21, 101, 105, -5
- O=C(NC1CCCC1)C(c1ccccc1)N(Cc1ccc2c(c1)OCO2)C(=O)c1ccco1 (stereo unspecified)
    -14, 102, 102, -23
- COc1ccc(NC(=O)[C@H](CCS(C)(=O)=O)N2Cc3ccccc3C2=O)cc1Cl
    -3, 104, 108, -6
- Cc1ccc(CN(C)CC(=O)Nc2ccc3c(c2)OCCCO3)cc1
    11, 103, 99, 3
- O=C(c1ccccc1)c1cn(Cc2ccccc2)c2ccccc2c1=O
    5, 105, 99, 8
- CCN1/C(=C2\C(=O)N=C(C)N2c2ccccc2)C=Cc2ccc(C)cc21
    -36, 101, 102, 2
- CCCOC(=O)C(C)Oc1ccc2c(=O)c(-c3ccccc3Cl)coc2c1 (stereo unspecified)
    -32, 103, 103, -7
- COc1ccc(CNC(=O)Cc2csc(N3CCCC3=O)n2)cc1
    -3, 99, 102, 13
- COc1ccc(C2=C/C(=C/c3ccc4c(c3)OCO4)C(=O)O2)cc1
    5, 86, 122, -1
- O=C(c1cnoc1)c1cc(Cl)cc(Cl)c1O
    ., 101, 107, -29
- C#CCn1c(-c2nonc2N)nc2ccccc21
    -40, 100, 100, -11
- NC(=O)c1ccc(N2CCCCC2)c(N)c1
    -24, 100, 102, -71

Part of the list above in order of number of heavy atoms, rising:
Values run as follows: Mtb MenB inh, Polio RdRp inh, Polio RdRp inh intensity, MbtI inh
- NC(=O)c1ccc(N2CCCCC2)c(N)c1
    -24, 100, 102, -71
- COc1ccc(C(C)=CC(=O)C(C)(C)C)cc1
    -14, 102, 106, -5
- O=C(CN1C(=O)CCC1=O)NCc1ccc2c(c1)OCO2
    -21, 101, 105, -5
- CN(C(=O)c1nn(C)c2c1CSc1ccccc1-2)c1ccccc1
    -5, 101, 100, -17
- Cc1ccc(CN(C)CC(=O)Nc2ccc3c(c2)OCCCO3)cc1
    11, 103, 99, 3
- Cn1nc(-c2ccc(C(=O)N3CCN(CCO)CC3)cc2)c2ccccc2c1=O
    -1, 98, 100, 10

Following part:
Values run as follows: Mtb MenB inh, Polio RdRp inh, Polio RdRp inh intensity, MbtI inh
- Cc1nc2cc(NS(=O)(=O)c3ccc(Oc4ccccc4)cc3)ccc2s1
    -30, 102, 105, -23
- O=C(CSc1nc(-c2ccc3c(c2)OCO3)nc2cc(=O)[nH]n12)NCCc1nc2ccccc2[nH]1
    -58, 100, 103, -8
- Cc1[nH]c2ccccc2c1Cc1nnc(SCC(N)=O)n1Cc1ccco1
    -11, 102, 108, -4
- COC(=O)c1ccc(C2N(Cc3ccc(F)cc3)CCCN2Cc2ccc(F)cc2)cc1
    -2, 103, 105, -5
- CCCCn1c(SCC(=O)N2c3ccccc3Sc3ccccc32)nc2c1c(=O)n(C)c(=O)n2C
    -25, 102, 105, -2
- Cc1oc2ccc(O)c(CN3CCCCC3)c2c1C(=O)NCc1ccccc1
    -26, 104, 101, 7
- Cc1c(-c2ccccc2)sc(NC(=O)C2CC(=O)N(Cc3ccco3)C2)c1C(=O)N1CCOCC1 (stereo unspecified)
    -14, 105, 103, 2
- CCCCN(C)C(=O)Cn1nc(CC)n2c(cc3sccc32)c1=O
    0, 103, 102, -2
- CC1=CC(=O)C(N2CCN(C(c3ccccc3)c3ccccc3)CC2)=CC1=O
    -23, 100, 108, 11
- CSC1=C(C#N)C(c2ccc(C(C)C)cc2)C2=C(CCCC2=O)N1 (stereo unspecified)
    -9, 100, 102, 38
- Cc1ccc(C2=NN(C(=O)COc3cccc(-n4cnnn4)c3)C(c3ccco3)C2)cc1 (stereo unspecified)
    -16, 101, 111, 28
- CN1CCN(C(c2ccccn2)c2c(-c3ccccc3)n(O)c3ccccc23)CC1 (stereo unspecified)
    -9, 88*, 87*, 22
- C=CCOc1ccccc1/C=C1/SC(N2CCN(C)CC2)=NC1=O
    -17, ., ., -7
- Cn1cccc1C(=S)N=P(N1CCOCC1)(N1CCOCC1)C(C)(C)C
    -10, 101, 94, 13
- O=c1cc(N2CCc3ccccc3C2)[nH]c(=O)n1Cc1ccc(F)cc1
    6, 97, 105, 11
- N#C/C(=C(/O)CSc1nnc(N)s1)c1nc2ccccc2s1
    -16, 106, 115, 58
- CCn1c(=O)c(=O)[nH]c2cc(C(=O)NCC(c3ccc(OC)cc3)N(C)C)ccc21 (stereo unspecified)
    -15, ., ., -14
- Cn1c2ccccc2c2cc(C3Nc4ccccc4C(=O)N3O)ccc21 (stereo unspecified)
    -48, 103, 100, 53
- CSc1nc2c(c(=O)n1Cc1ccccc1)SC(C)C2 (stereo unspecified)
    -6, 100, 106, 1
- N#CC1=C(S)N(c2ccccc2)C(c2ccc(-c3cccc(Cl)c3)o2)NC1=O (stereo unspecified)
    -51, 101, 106, 70
- O=C(O)C1CC(c2ccccc2)=C(c2ccccc2)CC1C(=O)c1ccccc1 (stereo unspecified)
    9, 103, 107, -12
- O=C(Nc1nnc(-c2ccccc2)o1)C(c1ccccc1)c1ccccc1
    9, 101, 102, 8
- O=C(Cn1ccc(=O)[nH]c1=O)OCc1c(Cl)cccc1Cl
    -13, 102, 104, -2
- Cc1c(CN2CCOCC2)c(=O)n(-c2ccccc2)n1C
    20, 101, 100, -4
- c1csc(CN2CCN(Cc3cccs3)C2c2cccs2)c1
    -64, 100, 101, .
- CCCNC(=O)C1CCCN(c2nc3c(C)cc(C)cc3s2)C1 (stereo unspecified)
    5, 100, 108, -8
- O=C(Nc1cccc(C(F)(F)F)c1)c1cc(-c2ccccc2)on1
    -16, 98, 104, -12
- CCS(=O)(=O)c1ccc2oc(SCC(=O)NCc3ccccc3)nc2c1
    -17, 104, 107, -5
- Cc1cccc(C)c1-n1nnnc1S(=O)(=O)Cc1ccccc1Cl
    -28, 97, 101, -3
- COC(=O)CNS(=O)(=O)c1ccc(I)cc1
    -18, 102, 102, .
- N#CC(C(=O)c1cccc(N2C(=O)CCC2=O)c1)c1ccccn1 (stereo unspecified)
    -17, 106, 109, -4
- O=C(Cc1nc2ccccc2n1C(=O)c1ccccc1)N1CCOCC1
    ., 99, 102, 0
- O=C(c1ccccc1)C1Oc2ccccc2OC1O (stereo unspecified)
    ., 104, 105, 7
- N#Cc1c(N2CCOCC2)nc2c3c(nc4c(c13)CC(=O)N4c1cccc(Cl)c1)NC1(CCCCC1)N2
    -53, 108, 117, -30
- COc1ccc(OCc2nnc(SCC(=O)O)n2N)cc1
    -13, 103, 101, -9
- O=C(O)C1C2C=CC(O2)C1C(=O)N1CCN(c2ccccc2)CC1 (stereo unspecified)
    -15, 104, 98, -2
- Cc1ccccc1Nc1nc(CCl)cs1
    ., 102, 105, -3
- Cc1cc(N2CCCCC2)nc2ccc(NC(=O)CCC(=O)N3CCC(C)CC3)cc12
    -11, 103, 105, 118
- Cn1c(=O)c2c(nc(SCC(=O)NC3CCCCC3)n2C)n(C)c1=O
    -27, 107, 111, .
- CCOC(=O)c1[nH]c(CSc2nnc(-c3ccco3)n2-c2ccccc2)c(C(=O)OCC)c1C
    -7, 104, 106, 9
- COc1ccc(OC)c(C2(O)CSC(=Nc3cccnc3)N2C2CC2)c1 (stereo unspecified)
    8, 103, 105, 8
- Cc1cc(C(C)(C)CC(C)(C)C)ccc1OCCOCC[N+](C)(C)Cc1ccccc1
    0&-3, 94*!, 73*!, -16&-11
- Cc1nn(CC(=O)Nc2ccc3c(c2)oc2ccccc23)c(=O)c2ccccc12
    22, 101, 101, 25
- O=C(c1ccccc1)c1ccc(OCC(O)CN2C(=O)c3ccccc3C2=O)cc1 (stereo unspecified)
    -31, 103, 105, .
- O=C(CCC(=O)c1cccs1)NCc1ccc(Cl)cc1
    ., 100, 102, -7
- CC1CN(C(=O)CSc2ncc(C(F)(F)F)cc2Cl)CC(C)O1 (stereo unspecified)
    11, 101, 96, 6
- COc1ccc(CC(=O)NN2C(=O)CSCC2=O)cc1OC
    5, 101, 96, 0
- COC(=O)c1ccc(NC(=O)CNC(=O)C2CCCCC2)c(C)c1
    1, ., ., 10
- O=C(Nc1ccc2c(c1)oc1ccccc12)c1cccs1
    -16, 101, 102, 178
- CC(C)CN1CCOC(CNC(=O)Nc2ccc(Cl)c(Cl)c2)C1 (stereo unspecified)
    -25, 108, 119, -17
- CCN(CC)c1ccc(O)c(/C=N/N2C(=O)/C(=C/c3ccco3)N=C2c2ccccc2)c1
    -31, 43, 244, .
- Cc1ccccc1NC(=O)Nc1nnc(N2CCCC2)s1
    -9, 98, 101, -12
- CCc1cccc2c(C#N)cn(CC(=O)NC3CCCC3)c12
    -3, 102, 98, .
- O=C(Nc1nn2cnnc2s1)C12CC3CC(CC(O)(C3)C1)C2
    14, 101, 104, 15
- O=C(O)c1n[nH]nc1-c1ccccc1
    -8, 102, 101, -3
- O=C(NCC1COc2ccccc2O1)c1ccc(NC(=O)c2ccc(Br)o2)cc1 (stereo unspecified)
    -32, 98, 102, 6
- CC1(C)CC(=O)C2=C(C1)Nc1[nH]c(=S)[nH]c(=O)c1C2c1cccs1 (stereo unspecified)
    -57, 101, 96, 44
- O=C(NC1CCCCC1)c1cc(-c2ccccn2)nc2ccccc12
    ., 102, 100, -9
- O=C(CSc1nnc(COc2ccccc2)o1)N1CCCC1
    20, 101, 103, 0
- CCOC(=O)c1cc2c(ccn2C)n1CC(=O)N(c1ccccc1)c1ccccc1
    -4, 102, 101, 13

Remaining list, next part.
Values run as follows: Mtb MenB inh, Polio RdRp inh, Polio RdRp inh intensity, MbtI inh
- O=C(CSc1nnc(-c2cc3ccccc3[nH]2)n1-c1ccccc1)N1CCNC1=O
    3, 58*, 67*, 2
- CCCc1cc(=O)[nH]c(SCCOC(=O)c2ccccc2)n1
    -11, 104, 108, 15
- NCCCN1CCCc2ccccc21
    6, 103, 100, 19
- COc1ccc(/C=C/C(=O)N2c3ccccc3CC2C)cc1OC (stereo unspecified)
    ., 105, 99, 6
- CCCn1c(N2CCN(C(=O)N3CCCCC3)CC2)nc2ccccc21
    -31, 91, 90, -4
- CC1CCN(S(=O)(=O)c2ccc(NC(=O)/C=C/c3ccccc3)cc2)CC1
    -8, 109, 104, .
- Cc1cc(C(=O)OC2CCOC2=O)c2ccccc2n1 (stereo unspecified)
    6, 102, 102, 40
- CC(Sc1nc2sccc2c(=O)n1C)C(=O)Nc1ccc2c(c1)OCO2 (stereo unspecified)
    -29, 101, 102, 7
- COc1ccc(C2=CSC3=C(C(=O)c4cc(OC)c(OC)c(OC)c4)CCN23)cc1
    -39, 114, 116, 16
- C[N+](C)(C)CCCCCC[N+](C)(C)C
    -2&4, 99&101, 103&104, -14&-4
- O=C(O)C1C2C=CC(O2)C1C(=O)Nc1ccccc1 (stereo unspecified)
    -27, 103, 99, 0
